Mtb betalactam = beta-lactam sensitization of Mtb H37Rv, H37Rv | M. tuberculosis H37Rv growth with meropenem, percent inhibition; hits of this screen are not shown here | inhibition, % at 25 µM | 0.27% of 330,000 active | AID 434955, 2010;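 active = about 74% or more and at least 40 points above the plate without the antibiotic, then above 30% in a dose series; inconclusive = first-round hits that could not be retested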;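 also: growth measured after seven days incubation then overnight dye step; 0% = bacteria only wells and 100% = bacteria with antibiotic; twin plates without the antibiotic show which effects depend on it; some results filed as inactive read as strong as hits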
YopH inh = YopH tyrosine phosphatase inhibitors, primary screen, biochemical, fluorescence Ex485/Em525; 0.16% of 140,000 active; AID 898, 2007; inhibition, %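 (about 10 µM by stock and volumes)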; YopH tyrosine phosphatase [Yersinia enterocolitica];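 active = inhibition of 50% or more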;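 also: controls were vehicle for no effect and minimum signal wells for full effect; inactives centre near -20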
RecA intein inh = Mtb RecA intein splicing inhibitors, primary screen, biochemical, fluorescence, HTS | cell-free RecA intein splicing | 0.75% of 290,000 active | Protein RecA (Mycobacterium tuberculosis (strain ATCC 25618 / H37Rv)), P9WHJ3 | inhibition, %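 (about 9 µM by stock and volumes)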; in the data active = inhibition above about 30%; inconclusive = no clear call, values can overlap the other calls;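 also: 0% = vehicle wells and 100% = reference inhibitor control wells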
Target sequence (P9WHJ3 whole entry, looked up): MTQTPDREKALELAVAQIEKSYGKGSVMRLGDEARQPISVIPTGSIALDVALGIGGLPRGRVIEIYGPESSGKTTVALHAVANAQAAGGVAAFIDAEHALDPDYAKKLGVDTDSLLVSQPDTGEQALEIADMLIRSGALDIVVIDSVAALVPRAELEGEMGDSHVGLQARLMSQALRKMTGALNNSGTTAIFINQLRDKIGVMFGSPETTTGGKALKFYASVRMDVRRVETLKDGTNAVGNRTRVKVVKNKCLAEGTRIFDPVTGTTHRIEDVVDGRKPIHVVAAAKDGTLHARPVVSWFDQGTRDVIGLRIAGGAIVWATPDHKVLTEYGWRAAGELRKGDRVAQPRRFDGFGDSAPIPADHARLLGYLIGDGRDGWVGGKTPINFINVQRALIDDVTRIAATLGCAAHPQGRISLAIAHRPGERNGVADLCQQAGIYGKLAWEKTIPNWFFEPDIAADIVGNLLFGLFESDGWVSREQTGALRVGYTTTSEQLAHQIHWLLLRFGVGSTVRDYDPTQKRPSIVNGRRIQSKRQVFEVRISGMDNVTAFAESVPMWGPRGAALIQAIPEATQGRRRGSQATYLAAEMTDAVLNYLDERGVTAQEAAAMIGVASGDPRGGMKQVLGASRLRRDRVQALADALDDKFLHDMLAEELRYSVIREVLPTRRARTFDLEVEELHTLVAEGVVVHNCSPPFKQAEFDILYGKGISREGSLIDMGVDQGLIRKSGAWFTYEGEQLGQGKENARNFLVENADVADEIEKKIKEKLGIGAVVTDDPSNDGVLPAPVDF
Arbovirus anti = antivirals against arbovirus infection, primary screen, cell-based, full library, 10K replicate subset. arbovirus infection cell-based antiviral screen. inhibition, % at 10 µM. 0.37% of 200,000 active. AID 1251, 2008;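 active = inhibition from about 30%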;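 also: bluetongue infection of BSR cells; cell survival read as ATP light after 72 h; 0% = infected wells without compound and 100% = uninfected wells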
Mtb growth = M. tuberculosis H37Rv growth inhibitors, H37Rv strain (AID 1626) | M. tuberculosis H37Rv growth inhibition; higher % means a stronger effect | 0.95% of 220,000 active | one-dose inhibition, % at 10 µM; IC50 in µM for titrated hits;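 active = confirmed in a dose series; inconclusive = inhibition above 80% but not taken into the dose series; inactive = below 80% or under 30% at every dose of the series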;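 also: bacteria incubated seven days before Alamar blue readout; 0% = bacteria only wells and 100% = bacteria with antibiotic wells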
* hit, by the source's call; ? = inconclusive; . = not tested or not shown; & = joins results of further samples. The list is partial. The share of hits here may be higher or lower than overall.

A first look:
1) C=C1c2cccc(O)c2C(O)=C2C(=O)[C@]3(O)C(O)=C(C(N)=O)C(=O)[C@@H](N(C)C)[C@@H]3[C@@H](O)[C@H]12
2) COc1ccccc1OCCNCC(O)COc1cccc2[nH]c3ccccc3c12 (stereo not drawn)
3) CCCOC(=O)c1ccc(O)cc1
4) Cn1c(=O)c2c(ncn2CCO)n(C)c1=O
screen / no. | 1 | 2 | 3 | 4
Mtb betalactam | 79 | ? | -14 | -2
YopH inh | . | . | . | .
RecA intein inh | -10 | 5.8 | 0.6 | -1.1
Arbovirus anti | -2 | -22&-21 | . | 2
Mtb growth | 2% | 26%&11%&46% | . | -1%

Results, previewed entries included:
1) C=C1c2cccc(O)c2C(O)=C2C(=O)[C@]3(O)C(O)=C(C(N)=O)C(=O)[C@@H](N(C)C)[C@@H]3[C@@H](O)[C@H]12
2) COc1ccccc1OCCNCC(O)COc1cccc2[nH]c3ccccc3c12 (stereo not drawn)
3) CCCOC(=O)c1ccc(O)cc1
4) Cn1c(=O)c2c(ncn2CCO)n(C)c1=O
5) CCCCCCc1ccc(O)cc1O
screen / no. | 1 | 2 | 3 | 4 | 5
Mtb betalactam | 79 | ? | -14 | -2 | -16
YopH inh | . | . | . | . | .
RecA intein inh | -10 | 5.8 | 0.6 | -1.1 | -0.9
Arbovirus anti | -2 | -22&-21 | . | 2 | .
Mtb growth | 2% | 26%&11%&46% | . | -1% | .

6) COc1ccc2ccc(=O)oc2c1
7) COc1cc2nc(N3CCN(C(=O)[C@H]4COc5ccccc5O4)CC3)nc(N)c2cc1OC
8) Cc1cccc(C)c1NC(=O)C1CCCCN1C (stereo not drawn)
9) COc1ccc2nc(NC(=O)Nc3ccccc3)sc2c1
10) O=c1cc(-c2ccc(O)cc2)oc2cc(O[C@@H]3O[C@H](CO)[C@@H](O)[C@H](O)[C@H]3O[C@@H]3OC[C@](O)(CO)[C@H]3O)cc(O)c12
screen / no. | 6 | 7 | 8 | 9 | 10
Mtb betalactam | -11 | 6 | -6 | -5 | 15
YopH inh | -27 | . | -4 | -48 | -36
RecA intein inh | -3.8 | 1.9 | 0.7 | 1.9 | -5.7
Arbovirus anti | 1 | . | 11 | 19 | 0
Mtb growth | -13% | . | -4% | 0% | -8%

11) CCCCC1C(=O)N(c2ccccc2)N(c2ccccc2)C1=O
12) NC(N)=NC(=O)Cc1c(Cl)cccc1Cl
13) COc1ccc(CN2CCN(C(c3ccc(F)cc3)c3ccc(F)cc3)CC2)c(OC)c1OC
14) NNC(=O)CP(=O)(c1ccccc1)c1ccccc1
15) COC(c1ccccc1)(c1ccccc1)C(Oc1nc(C)cc(C)n1)C(=O)O (stereo not drawn)
screen / no. | 11 | 12 | 13 | 14 | 15
Mtb betalactam | 10 | -3 | 93 | -2 | -12
YopH inh | -50 | -12 | . | . | .
RecA intein inh | 0.8 | 1.7 | 23 | 8.5 | -1.0
Arbovirus anti | -6 | 15 | . | . | .
Mtb growth | -1% | -1% | ? | . | .

Complete entries from above. Screens in order: Mtb betalactam, YopH inh, RecA intein inh, Arbovirus anti, Mtb growth
COc1ccc(CN2CCN(C(c3ccc(F)cc3)c3ccc(F)cc3)CC2)c(OC)c1OC reads 93, ., 23, ., ?
COC(c1ccccc1)(c1ccccc1)C(Oc1nc(C)cc(C)n1)C(=O)O (stereo not drawn) reads -12, ., -1.0, ., .
CCCCC1C(=O)N(c2ccccc2)N(c2ccccc2)C1=O reads 10, -50, 0.8, -6, -1%
NC(N)=NC(=O)Cc1c(Cl)cccc1Cl reads -3, -12, 1.7, 15, -1%

(cont.)
16) O=C(Nc1ccc(C(=O)O)c(O)c1)c1ccccc1
17) Cc1[nH]c2ccccc2c1/C=N/NC(N)=S
18) CCCCOc1ccc(CC(=O)NO)cc1
19) O=C(O)/C=C/c1ccc(O)cc1
20) CCC(=O)O[C@]1(C(=O)SCF)[C@H](C)C[C@H]2[C@@H]3C[C@H](F)C4=CC(=O)C=C[C@]4(C)[C@@]3(F)[C@@H](O)C[C@@]21C
screen / no. | 16 | 17 | 18 | 19 | 20
Mtb betalactam | 3 | 92 | 6 | 3 | -5
YopH inh | . | . | -13 | . | .
RecA intein inh | -1.6 | -1.0 | -2.5 | -2.5 | -3.5
Arbovirus anti | . | . | -39 | . | .
Mtb growth | 7% | 0% | -4% | 3% | 8%

21) COc1c(O)cc2c(c1O)[C@@H]1O[C@H](CO)[C@@H](O)[C@H](O)C1OC2=O (stereo partly drawn)
22) CC(C)(CO)C(O)C(=O)NCCCO (stereo not drawn)
23) O=C(O)CNC(=O)c1ccccc1
24) CC12CCC(=O)C=C1CCC1C2CCC2(C)C1CC[C@]2(O)C(=O)CO (stereo partly drawn)
25) CN(C)CCOc1ccccc1Cc1ccccc1
screen / no. | 21 | 22 | 23 | 24 | 25
Mtb betalactam | 3 | 1 | -1 | -3 | 3
YopH inh | . | . | . | . | -28
RecA intein inh | 1.8 | 2.3 | -7.2 | -0.4 | 1.5
Arbovirus anti | . | . | . | . | 0
Mtb growth | . | . | . | . | -6%

26) C[C@@H]1C[C@H]2[C@@H]3C[C@H](F)C4=CC(=O)C=C[C@]4(C)[C@@]3(F)[C@@H](O)C[C@]2(C)[C@@]1(O)C(=O)COC(=O)C(C)(C)C
27) CNc1c2c(nn1C)CCCC2
28) COc1ccc(/C=N/NC(=O)c2ccncc2)cc1OC
29) Nc1ncnc2nc[nH]c12
30) COC(=O)C1=CO[C@@H](OC2OC(CO)C(O)C(O)C2O)[C@@H]2[C@@H](C)[C@@H](O)C[C@H]12 (stereo partly drawn)
31) COc1cc([C@H]2Oc3cc([C@H]4Oc5cc(O)cc(O)c5C(=O)[C@@H]4O)ccc3O[C@@H]2CO)ccc1O
screen / no. | 26 | 27 | 28 | 29 | 30 | 31
Mtb betalactam | -1 | 3 | 99 | 1&1&5 | -4 | -2
YopH inh | -41 | -42 | . | . | . | .
RecA intein inh | 0.3 | -3.7&-1.8 | -1.4 | -0.7&5.6&0.7 | -0.6 | -3.0
Arbovirus anti | 17 | 1 | . | . | . | .
Mtb growth | -11% | -13% | . | -9% | -6% | .

Values in list order from the entries so far:
Mtb betalactam, entries 6 to 13: -11, 6, -6, -5, 15, 10, -3, 93
Mtb growth, entries 6 to 13: -13%, ., -4%, 0%, -8%, -1%, -1%, ?
